Compound activity deposited in PubChem BioAssay by several laboratories.
GALR2 ag – GALR2 receptor agonists, primary screen, cell-based; activation, %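 (tested at 5 µM)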; Galanin receptor type 2 (Homo sapiens), O43603; GALR2-expressing cells, agonist activation read-out; AID 803, 2007; 0.48% of 140,000 active;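 active = above mean plus 3 SD of all compounds, about 5% in these data, not always enough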;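 note: 0% = vehicle buffer wells and 100% = reference agonist at full effect; tested in CHO reporter cells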
Target sequence (O43603 whole entry, looked up): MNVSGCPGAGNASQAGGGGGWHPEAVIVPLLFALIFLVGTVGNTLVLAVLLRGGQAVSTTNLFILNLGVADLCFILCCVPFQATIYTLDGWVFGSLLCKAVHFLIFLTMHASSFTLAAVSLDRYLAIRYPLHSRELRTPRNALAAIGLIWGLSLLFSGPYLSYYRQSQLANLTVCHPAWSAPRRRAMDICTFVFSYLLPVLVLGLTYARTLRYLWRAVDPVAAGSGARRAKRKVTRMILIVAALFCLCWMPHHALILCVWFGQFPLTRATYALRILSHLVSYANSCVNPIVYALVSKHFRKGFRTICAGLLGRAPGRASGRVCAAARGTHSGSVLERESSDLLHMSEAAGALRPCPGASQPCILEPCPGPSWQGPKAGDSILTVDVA
RGS16-Gao HTS – modulators of RGS16 binding to Galphao, primary screen, biochemical, human proteins, multiplexed bead flow cytometry. Regulator of G-protein signaling 16 (Homo sapiens) + Guanine nucleotide-binding protein …. bead-based flow cytometry RGS16-Galphao binding, fluorescence; actives lie on both sides. binding response (% of control), % at 10 µM. 0.38% of 220,000 active. AID 1441, 2008;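 active = below 25% or above 175%, edge rows of some plates excepted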;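 note: Galphao activated by GDP with aluminum fluoride before binding; 100% = wells without compound and 0% = beads without RGS; some results beyond the cut were filed as inactive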
Target sequence (O15492 whole entry, looked up): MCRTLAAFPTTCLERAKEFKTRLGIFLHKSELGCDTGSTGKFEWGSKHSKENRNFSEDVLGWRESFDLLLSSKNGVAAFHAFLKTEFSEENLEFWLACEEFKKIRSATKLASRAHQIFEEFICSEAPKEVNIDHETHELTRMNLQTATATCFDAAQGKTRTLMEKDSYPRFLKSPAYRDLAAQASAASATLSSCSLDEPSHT
Target sequence (P09471 whole entry, looked up): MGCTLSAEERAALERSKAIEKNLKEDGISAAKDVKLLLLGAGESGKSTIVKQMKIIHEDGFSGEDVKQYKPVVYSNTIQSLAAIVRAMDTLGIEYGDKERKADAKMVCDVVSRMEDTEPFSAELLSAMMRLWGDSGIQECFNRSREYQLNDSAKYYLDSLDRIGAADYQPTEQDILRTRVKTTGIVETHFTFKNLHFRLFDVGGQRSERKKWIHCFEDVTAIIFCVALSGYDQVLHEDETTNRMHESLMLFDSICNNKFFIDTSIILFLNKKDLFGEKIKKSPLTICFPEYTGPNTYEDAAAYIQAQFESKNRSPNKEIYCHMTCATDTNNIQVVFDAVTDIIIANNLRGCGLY
HSV augment – enhancers of HSV replication in host cells, fold increase, host cell viability; HSV replication augmentation in cells; maximum fold increase; 0.005% of 220,000 active; AID 1956, 2009;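 active = peak rise of 1.5-fold or more in the series; tested in PC3 cells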;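 note: first round at 10 µM; read as green reporter fluorescence; hits show the peak of a series up to 25 µM; 1 = signal of infected wells without compound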
Insulin prom inh – inhibitors of insulin promoter-driven GFP, primary screen, imaging, TRM-6 cells (human fetal islet line), eGFP reporter, cell count. 0.9% of 130,000 active. reporter expression induced with tamoxifen. AID 1273, 2008. inhibition, % at 2 µM;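 active = inhibition above the mean plus 3 SD, with well images judged a real hit on visual review, cut at about 60% in these data, passing the limit was not always enough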
PKD1 kinase inh – inhibitors of human PKD1 kinase, biochemical, fluorescence polarization; inhibition, %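 (about 10 µM by stock and volumes)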; 0.056% of 200,000 active; PKD1 kinase fluorescence polarization assay; AID 797, 2007; Serine/threonine-protein kinase D1 (Homo sapiens), Q15139;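 active = inhibition of 50% or more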;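 note: controls were vehicle for no effect and a reference inhibitor for full effect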
Insulin prom inh cell count – further read-out of Insulin prom inh, marked with its call; normalized cell count, %; measured here: cell count, toxicity; reference of the scale not given here;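 cells exposed to compound for 48 h; stained nuclei by imaging scaled within each plate; lower means fewer cells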
HSV augment primary fold – further read-out of HSV augment, marked with its call; fold increase; compound at 10 µM; measured here: primary screen fold increase 10 uM; tested in PC3 cells;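 GFP signal in the first replicate; 1 = infected wells without compound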
The depositor's hits bear a star; i = inactive; . = no result given. No enrichment for hits; 1.3% or so of the library scored in one or more.

SMILES	GALR2 ag	RGS16-Gao HTS	HSV augment	HSV augment primary fold	Insulin prom inh	Insulin prom inh cell count	PKD1 kinase inh
COc1ccc(NC(=O)C(c2ccc(OC)cc2)N(C)C(=O)CC2NC(=O)NC2=O)cc1 (stereo not given)	-1.6	103	i	0.96	36	126	3
Cc1ccc([N+](=O)[O-])c(OCC(O)CNC(C)(C)C)c1 (stereo not given)	.	102	i	0.94	.	.	.
O=C1c2ccccc2C(=O)N1CCc1nc(-c2ccc(Cl)cc2)no1	-2.2	100	i	0.84	46	80	-2
CN(C(=O)CSc1ncccc1C(=O)O)c1ccccc1	0.1	108	i	0.93	.	.	2
COC(=O)c1cc(C(=O)OC)cc(S(=O)(=O)Nc2ccc(Cl)c(N)c2)c1	-4.3	101	i	0.91	-48	109	3
CCOC(CCNC(=O)c1cn(-c2cccc(C)n2)cn1)OCC	-0.8	102	i	0.89	39	147	10
COC(=O)c1ccccc1NC(=O)c1cccc(NC(=O)C(C)C)c1	.	99	i	0.88	.	.	0
COc1ccc(-c2noc(-c3ccc(Br)o3)n2)cc1	.	99	i	0.95	.	.	.
Fc1cccc(Cl)c1CSc1ccc2nnc(-c3ccccn3)n2n1	.	98	i	0.88	.	.	-6
CCOC(=O)C1=C(C)N=C2c3ccccc3C(=O)C2C1c1ccc(Cl)cc1 (stereo not given)	-3.5	107	i	0.79	0	92	2
O=C(O)c1cc(/C=C/c2ccc(N3CCOCC3)c([N+](=O)[O-])c2)nc2ccccc12	.	103	i	0.96	.	.	.
O=C(N/C(=C\c1ccc(-c2ccccc2)o1)C(=O)N1CCOCC1)c1ccccc1	.	104	i	0.94	-79	94	0
O=C(NCCSc1c[nH]c2ccccc12)c1ccc2c(c1)OCO2	.	100	i	1	27	144	-10
O=C(Cn1nnc(-c2cccc(C(F)(F)F)c2)n1)NC(=O)NCc1ccco1	1.1	99	i	0.94	-28	76	1
COc1cccc(N2CCN(C(=O)CCn3c(=S)[nH]c4cc5c(cc4c3=O)OCO5)CC2)c1	-2.6	87	i	0.92	.	.	10
CN(C)c1cc(-c2ccccc2)nc(N)n1	.	117	i	0.86	.	.	-5
Cc1ccn2c(-c3n[nH]c(=S)n3Cc3ccccc3)c(C)nc2c1	-0.5	108	.	.	-17	91	0
COc1ccc(C2/C(=C(\O)c3cccc(OC)c3)C(=O)C(=O)N2c2ccccn2)cc1 (stereo not given)	-1.9	100	i	0.96	-33	43	-15
COc1cnc(SCc2ccc(Cl)cc2)nc1Cl	0.0	116	i	0.91	.	.	-7
COCCn1c(C)cc(C(=O)CSc2nnc3scc(-c4ccc(Cl)cc4)n23)c1C	-1.0	.	.	.	-3	112	-1
Cn1nccc1C(=O)N/N=C/c1cccnc1	.	99	i	0.99	.	.	.
COc1ccc(-n2nc(C)cc2N)cc1	.	102	i	0.99	.	.	-2
Cn1c(CN2CCCC2)nc2cc(NS(=O)(=O)c3ccc(Cl)cc3)ccc21	-1.5	102	i	0.88	43	121	-6
CCCc1nc(N)nc2c1C(=O)CC(C)(C)C2	-2.7	103	i	0.93	26	76	14
COc1ccc(Br)cc1/C=N/NC(=O)c1cc(Br)ccc1O	.	101	i	0.87	.	.	-12
CCOC(=O)c1c(C)[nH]c(C(=O)CSc2nnc(CC(C)c3ccccc3)o2)c1C (stereo not given)	0.7	99	i	0.8	.	.	-7
CC1CCCCN1S(=O)(=O)c1ccc2c(c1)CCN2C(=O)CCC(=O)O (stereo not given)	-1.2	112	i	1	-56	110	4
CCC(=O)Nc1ccc(-c2nn3c(C)nnc3s2)cc1C	-2.8	97	i	1.2	17	94	-11
Brc1cccc(-c2nnc3n2CCCCC3)c1	-1.9	99	i	0.82	.	.	16
O=C(COc1ccc([N+](=O)[O-])cc1)N/N=C/c1cc([N+](=O)[O-])ccc1N1CCOCC1	-1.2	100	i	1	-148	138	1
O=C(Nc1ccc2c(c1)OCO2)C1CC(c2ccc(F)cc2)=NO1 (stereo not given)	-2.2	94	i	0.95	25	94	-5
COC(=O)c1cc(=O)n(CCc2ccc(OC)c(OC)c2)c(=Nc2ccc(F)c(Cl)c2)s1	-2.3	84	i	0.46	.	.	8
Cc1ccc(/C(O)=C2\C(=O)C(=O)N(CC(C)O)C2c2ccc(N(C)C)cc2)cc1 (stereo not given)	-1.4	93	i	1	-36	66	-11
CC(=O)Nc1cn(C(C)=O)c(C)n1	-2.8	111	i	0.8	.	.	-11
O=C(NCc1ccccc1)C(c1ccccc1)N(Cc1cccs1)C(=O)c1cnccn1 (stereo not given)	-1.1	100	i	0.94	.	.	-10
Cc1cccc(CSc2ccc(-c3ccco3)nn2)c1	-1.5	96	i	0.98	.	.	-6
CCOc1cccc(CNn2cnnc2)c1OCc1ccccc1	-2.1	103	i	1	-26	144	-6
CN(C)[C@@H]1C(=O)C(C(=O)NCN2CCCC2)=C(O)[C@@]2(O)C(=O)C3=C(O)c4c(O)cccc4[C@@](C)(O)C3CC12 (stereo not given in full)	0.0	8	i	1	-38	78	23
CCOc1ccc(-n2c(Cc3cc(=O)[nH]c(=O)[nH]3)nnc2SCC(N)=O)cc1	-1.1	79	i	0.92	.	.	-12
COc1cc(C(=O)NCCC(=O)NC2CCCCCCC2)cc(OC)c1OC	0.0	102	i	0.84	8	128	-2

Two compounds drawn at random from the list so far:
SMILES	GALR2 ag	RGS16-Gao HTS	HSV augment	HSV augment primary fold	Insulin prom inh	Insulin prom inh cell count	PKD1 kinase inh
Cc1ccc(/C(O)=C2\C(=O)C(=O)N(CC(C)O)C2c2ccc(N(C)C)cc2)cc1 (stereo not given)	-1.4	93	i	1	-36	66	-11
COC(=O)c1cc(=O)n(CCc2ccc(OC)c(OC)c2)c(=Nc2ccc(F)c(Cl)c2)s1	-2.3	84	i	0.46	.	.	8

Other entries follow:
SMILES	GALR2 ag	RGS16-Gao HTS	HSV augment	HSV augment primary fold	Insulin prom inh	Insulin prom inh cell count	PKD1 kinase inh
CC(OC(=O)C1CCC(=O)N1)C(=O)Nc1cc(Cl)cc(Cl)c1 (stereo not given)	-0.8	103	i	1	-20	98	0
COc1cc(CC(=O)OCC(=O)Nc2ccc3c(c2)OCO3)cc(OC)c1OC	.	108	i	0.88	.	.	1
Cc1nn(C(C)c2n[nH]c(=S)n2-c2ccc(F)cc2)c(C)c1[N+](=O)[O-] (stereo not given)	-1.5	100	i	1.1	21	129	-2
CC(=C/C(=O)O)/C(=C/c1ccccc1)C(=O)O	-0.4	108	i	1.1	-74	86	-9
CN(/N=C/c1ccccc1Cl)c1ncc(Cl)cc1C(F)(F)F	.	91	i	1.1	.	.	.
CC(=O)Nc1ccc(NC(=O)C23CC4CC(C2)CC(n2cnc(Br)n2)(C4)C3)cc1	.	99	i	1	-39	59	-1
CCOC(=O)Nc1ccc2c(c1)Nc1ccccc1S2	-2.5	101	i	0.61	.	.	-8
Cc1ccc(CNC(=O)C(NS(=O)(=O)c2ccc3nc(C)sc3c2)C(C)C)cc1 (stereo not given)	-2.5	100	i	0.76	.	.	16
COC(=O)CNC(=O)COC(=O)/C=C/c1ccccc1[N+](=O)[O-]	.	98	i	1.1	67	106	1
Cn1c(SCC(=O)Nc2cc(S(=O)(=O)N3CCOCC3)ccc2N2CCOCC2)nnc1-c1ccncc1	.	98	i	1	-18	88	-4
CNC(=O)NC(=O)CSc1nnc(-c2ccco2)n1Cc1ccccc1	-1.5	101	i	1.1	33	95	3
Nc1nc(Cl)cc(N2CCC(c3cc(-c4ccc(Cl)cc4Cl)n[nH]3)CC2)n1	-1.3	84	i	0.78	-22	158	-7
CCOC(=O)Cc1c(C)nc(N)[nH]c1=O	.	105	i	0.91	.	.	1
CCCc1nn2c(=O)c(C(c3ccc(C)cc3)c3c(O)nc4sc(CCC)nn4c3=O)c(O)nc2s1	0.0	140	i	0.85	-45	68	-5
Cc1ccc(C(=O)N(C)CC(=O)Nc2ccc(F)c(F)c2F)o1	.	103	i	0.95	14	143	-4
O=S(=O)(NCC1CCCO1)c1ccc2c(c1)OCCO2 (stereo not given)	-0.6	94	i	0.97	62	96	-17
CCN(CC)C(=O)c1ccc(COc2ccccc2Br)o1	-3.0	99	i	0.9	.	.	-2
O=C(Nc1ncnc2sc3c(c12)CCC3)c1ccco1	0.5	101	i	0.87	-18	91	-2
Cc1nn(C)c(C)c1S(=O)(=O)N1CCC(CO)(Cc2ccc(Cl)cc2)CC1	.	108	i	0.94	.	.	-7
COc1ccc(C/C(=N\O)c2ccc(OC)cc2)cc1	-2.2	44	i	1.1	31	159	1
O=C(NCc1ccc2c(c1)OCO2)C1CC(=O)N(c2ccc(F)cc2)C1 (stereo not given)	-1.7	95	i	0.96	56	146	-3
Cc1ccc(-n2c(Cc3cccs3)nnc2SCC(=O)Nc2ccc(F)c(F)c2)cc1	0.6	102	i	1	-46	61	-2
NC(=NCCc1c[nH]c2ccccc12)NC(=O)c1ccc(F)cc1	.	103	i	0.86	.	.	.
O=C(CNc1cccc(S(=O)(=O)N2CCOCC2)c1)N1CCc2ccccc21	.	102	i	0.86	.	.	.
CN(CCN1CCOCC1)Cc1nc(-c2ccc(Cl)cc2)no1	.	98	i	1	.	.	.
CCN(CC)CCn1c(=S)[nH]c2ncccc2c1=O	-1.8	104	i	0.8	-50	117	-4
CNc1cc(F)nc(F)n1	.	106	i	1.1	6	97	0
CC(=O)c1c(C)nc2ccc(Br)cc2c1C(=O)O	-1.6	107	i	1.1	.	.	-1
CCCN1CCN(C(=O)c2cn(CC(C)C)c(=O)c3cc(OC)c(OC)cc23)CC1	-2.3	127	.	.	-3	120	2
CC(C)CC(C)NNC(=O)c1cc2ccccc2[nH]1 (stereo not given)	-1.7	99	i	0.96	.	.	-9
C/C(CC(=O)NC12CC3CC(CC(C3)C1)C2)=N\NC(=O)c1cnccn1	.	100	i	0.89	15	141	-6
CCn1c(COc2cccc(C)c2)nnc1SCC(=O)N1CCCC1	0.3	100	i	0.85	-36	87	-3
Cc1cccc(C(=O)NC(=S)Nc2ccccc2C(=O)O)c1	.	99	i	1.1	.	.	4
CCN(CC)C(=O)NC1CCCCCCC1	.	98	i	0.95	.	.	-1
CCOc1ccc(CN2CCN(C/C=C/c3ccc(OC)cc3)CC2CCO)cc1 (stereo not given)	.	104	i	0.88	.	.	-4
CCOc1ccc(NC(=O)c2ccc(CNc3c(NC4CCCCC4)c(=O)c3=O)cc2)cc1	-3.7	94	.	.	.	.	-2
Cc1ccc(CN2C(=O)N/C(=C\c3cccn3-c3cccc(C(=O)O)c3)C2=O)cc1	.	101	i	0.95	.	.	5
O=C(Cn1ccc([N+](=O)[O-])n1)NCc1nc2ccccc2[nH]1	.	103	i	0.98	-59	120	-7
CCNC(=S)NNC(=O)c1cccn(Cc2ccc(Cl)cc2Cl)c1=O	-3.1	29	i	0.64	54	92	-30
Cc1ccc(S(=O)(=O)NC(C)(C)CSc2nncn2C)cc1	-1.9	101	.	.	7	244	-6
O=C(Cn1nnc2ccccc21)NNC(=O)c1ccccc1	.	101	i	0.94	.	.	.
O=C(CCc1nnc(CCc2ccccc2)o1)N1CCCCC1CCn1cccn1 (stereo not given)	.	107	i	1.1	.	.	-1
COc1ccccc1-n1cc(C(=O)NCC(=O)N2CCN(Cc3ccccc3)CC2)c2ccccc2c1=O	.	99	i	0.83	.	.	-3
CC1CC(C)CN(C(=O)CN2CCN(Cc3ccc(Cl)cc3)C2=O)C1 (stereo not given)	-3.0	109	i	0.91	0	137	-10
O=C(CNS(=O)(=O)c1ccccc1)OCC(=O)c1cccc([N+](=O)[O-])c1	-0.5	106	i	0.9	5	128	2
NCCSc1c(-c2ccc(Cl)cc2)[nH]c2ccccc12	.	106	i	0.6	.	.	.

Five structures from above, ordered by SMILES length, falling.
SMILES	GALR2 ag	RGS16-Gao HTS	HSV augment	HSV augment primary fold	Insulin prom inh	Insulin prom inh cell count	PKD1 kinase inh
COc1ccccc1-n1cc(C(=O)NCC(=O)N2CCN(Cc3ccccc3)CC2)c2ccccc2c1=O	.	99	i	0.83	.	.	-3
O=C(CNS(=O)(=O)c1ccccc1)OCC(=O)c1cccc([N+](=O)[O-])c1	-0.5	106	i	0.9	5	128	2
CCNC(=S)NNC(=O)c1cccn(Cc2ccc(Cl)cc2Cl)c1=O	-3.1	29	i	0.64	54	92	-30
Cc1ccc(S(=O)(=O)NC(C)(C)CSc2nncn2C)cc1	-1.9	101	.	.	7	244	-6
O=C(Cn1nnc2ccccc21)NNC(=O)c1ccccc1	.	101	i	0.94	.	.	.
